Source: PubChem BioAssay
VDR inhibitor: vitamin D3 receptor (human) inhibition; P11473; VDR-SRC2-3 peptide fluorescence polarization, 2 h; Potency, µM, inactives show max response, negative = inhibition, most hits filed as inhibitors; 400,000 tested, 0.93% active; active means well fitted inhibition curve with a large enough effect; inconclusive means small, poorly fitted or top-dose-only effect, or another doubt; inactive means no such curve, though single readings can be large or run the other way; further: series mostly up to about 120 µM
Target sequence (P11473 whole entry, looked up): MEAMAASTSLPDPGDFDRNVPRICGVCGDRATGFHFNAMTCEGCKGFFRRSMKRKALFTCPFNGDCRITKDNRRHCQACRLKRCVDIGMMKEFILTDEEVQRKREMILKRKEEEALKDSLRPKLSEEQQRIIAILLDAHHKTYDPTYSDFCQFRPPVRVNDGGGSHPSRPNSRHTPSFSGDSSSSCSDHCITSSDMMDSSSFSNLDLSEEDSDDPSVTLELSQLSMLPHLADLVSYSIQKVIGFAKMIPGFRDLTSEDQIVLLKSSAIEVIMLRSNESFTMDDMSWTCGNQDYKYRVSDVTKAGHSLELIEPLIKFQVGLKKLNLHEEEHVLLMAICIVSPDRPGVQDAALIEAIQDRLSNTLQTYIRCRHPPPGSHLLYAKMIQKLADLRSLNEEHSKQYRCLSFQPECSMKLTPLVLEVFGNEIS
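Two reagent solutions held at 4 deg C in the dark were dispensed, compounds pinned at 23 nl, and the mixture incubated 2 h at room temperature. Read-out: fluorescence polarization of VDR–SRC2-3 peptide binding.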
The depositor's hits bear a star; ? = inconclusive; [ ] = remark or other dose. On the % scale 0 is the no-effect control and ±100 the full control effect; potency means the concentration at half of the fitted maximal effect. A portion of the library (hit frequency here may not be typical).

molecule,VDR inhibitor
Cc1nc2nc(-c3ccc(Cl)cc3Cl)nn2c(C)c1CCC(=O)Nc1ccc(F)cc1,-1%
Cc1ccc(NC(=O)CN2CCN(C3CCCCC3)C(=O)C2=O)cc1,0%
COC(=O)c1ccc(CNC(=O)C2CCC(=O)N(Cc3ccccn3)C2)cc1 (stereo not drawn),-9%
Cc1ccc(/C=C/C(=O)Nc2cccc3ncccc23)o1,-7%
COc1ccc(N(C)C(=O)CCS(=O)(=O)c2cccc3nonc23)c(OC)c1,9%
CC1(C)CC2(CC(C)(C(=O)CSc3nc4ccccc4s3)OC2=O)C(=O)O1 (stereo not drawn),-17%
COc1ccc(CNC(=O)COCc2cc(-c3ccc4c(c3)OCO4)on2)cc1,13%
Cc1ccc2nc(CN3CCN(S(=O)(=O)c4ccc(F)cc4)CC3)oc2c1,12%
CCOc1cc(/C=C(\CC(=O)O)c2nc3ccccc3s2)ccc1OC,-4%
CC(=O)Nc1ccc(N(C(=O)Cc2cccs2)C(C(=O)NC2CCCC2)c2ccncc2)cc1 (stereo not drawn),16%
CC(NCC1COc2ccccc2O1)C(=O)NCc1ccccc1 (stereo not drawn),-4%
CCOc1ccc(CN(C)C(=O)CNC(=O)Cc2cccc3ccccc23)cc1,-7%
CCOc1ccccc1N1CCN(S(=O)(=O)c2ccc(F)c(F)c2)CC1,-14%
CC1CC2OC2CC1COC(=O)C1CC2OC2CC1C (stereo not drawn),-9%
O=C(CCN1C(=O)/C(=C/c2cccs2)SC1=S)Nc1cccc(O)c1,-5%
O=C(C1=C(O)C(=O)N(CCN2CCOCC2)C1c1ccco1)c1cc2ccccc2o1 (stereo not drawn),4%
Cc1ccccc1-n1nc2c(c1NC(=O)c1cc3ccccc3oc1=O)CS(=O)(=O)C2,6%
CC(Cn1cnc2ccccc21)C(=O)O (stereo not drawn),-4%
Cc1cccc(OCC(=O)Nc2cc(Cl)ccc2-n2cncn2)c1C,13%
O=C(COc1ccccc1Br)NC1CCCC1,-26%
O=[N+]([O-])c1cccc(-n2nnnc2CN2CCCC2)c1,14%
COc1cccc2cc(C(=O)NC(C)c3ccccc3)c(=O)oc12 (stereo not drawn),24%
CCn1c(O)c(N=NC(=O)CNc2ccc(C)cc2)c2ccccc21,12%
N#CC1=C2C=CC=CN2CC1=O,6%
COC(=O)c1ccc(OCC2c3cc(OC)c(OC)cc3CCN2C(=O)C2CC2)cc1 (stereo not drawn),-5%
COCCn1c(SCc2ccc(C(=O)OC)o2)nc2ccccc2c1=O,-7%
Cc1cccc2c1N(CC(=O)OC(C)C)C(=O)C2=O,-4%
CC(C)OC(=O)CC1C(=O)NCCN1C(=S)NC(=O)c1cccs1 (stereo not drawn),13%
Cc1ccc(S(=O)(=O)NCC(C)NS(=O)(=O)c2ccc(C)cc2)cc1 (stereo not drawn),-1%
COCCNc1nc(-c2ccoc2)nc2ccccc12,0%
Cc1ccc(C)c(C(=O)CSc2nnnn2C(C)C)c1,-6%
Cc1ccc(NC(=O)c2c(C)oc3nc(C)nc(N4CCCC4)c23)c(C)c1,2%
CS(=O)(=O)N1CCN(c2nc3ccccc3s2)CC1,-9%
CC(OC(=O)Cc1c[nH]c2ccccc12)C(=O)c1ccccc1 (stereo not drawn),8%
O=C(CCNC(=O)c1ccc(Br)cc1)NCCCN1CCOCC1,-4%
O=C(CCOc1ccccc1)NNC(=O)c1ccccc1,12%
O=C(O)c1ccc(N2C(=O)CSC2c2cccc([N+](=O)[O-])c2)cc1 (stereo not drawn),19%
CCn1c(=O)c2c(nc3n2CCN3c2ccccc2)n(C)c1=O,-3%
Cc1n[nH]c(=O)c2c(NC(=O)COC(=O)c3ncc(Cl)c(Cl)c3Cl)oc(C)c12,9%
O=c1c2ccccc2[nH]c(=S)n1CCN1CCCC1,3%

Sorted by molar mass (smallest number first): 6 of the compounds above.
molecule,VDR inhibitor
CS(=O)(=O)N1CCN(c2nc3ccccc3s2)CC1,-9%
COc1cccc2cc(C(=O)NC(C)c3ccccc3)c(=O)oc12 (stereo not drawn),24%
O=C(O)c1ccc(N2C(=O)CSC2c2cccc([N+](=O)[O-])c2)cc1 (stereo not drawn),19%
COCCn1c(SCc2ccc(C(=O)OC)o2)nc2ccccc2c1=O,-7%
O=C(CCNC(=O)c1ccc(Br)cc1)NCCCN1CCOCC1,-4%
COC(=O)c1ccc(OCC2c3cc(OC)c(OC)cc3CCN2C(=O)C2CC2)cc1 (stereo not drawn),-5%

Additional results.
molecule,VDR inhibitor
COc1ccc(-c2noc(CCC(=O)N3CCN(c4ccccc4C(F)(F)F)CC3)n2)cc1,-13%
Cc1cc(C)c2c(=O)[nH][nH]c2n1,-5%
COc1ccccc1CCC(=O)Nc1ccc(OC)c(S(=O)(=O)N2CCOCC2)c1,-19%
COc1ccc(OC)c(CCNC(=O)c2nc(-c3ccc(Cl)cc3)n3c2CCCCC3)c1,13%
COc1cc(NS(=O)(=O)c2ccc(C)cc2C)cc(OC)c1OC,21%
CCOc1ccccc1NC(=S)N1CCC(NC(=O)c2ccco2)CC1,-14%
COc1cccc(CN(C)CC(=O)Nc2ccccc2C(=O)Nc2ccccc2)c1,3%
CC(C)(C)n1nnnc1C(c1ccccn1)N(Cc1ccccc1)Cc1ccc(Cl)cc1 (stereo not drawn),-21%
Cc1ccc(N2C(=O)CC(n3nc(C)cc3C)C2=O)cc1 (stereo not drawn),7%
Cc1nn(C)c(C(=O)Nc2ccn(Cc3c(F)c(F)cc(F)c3F)n2)c1[N+](=O)[O-],2%
CCOc1ccc(NC(=S)Nc2cc(OC)c(Cl)cc2OC)cc1,-29%
CCOC(=O)Cc1c(C)nc2c(-c3ccc(OC)cc3)c(C)nn2c1C,0%
CCc1ccc(OCC(=O)N2c3ccccc3CCc3ccccc32)cc1,-15%
O=C(COc1ccc(/C=N/NC(=O)c2cc3ccccc3o2)cc1Br)Nc1ccccc1,4%
COc1ccccc1-n1c(C)c(C(=O)O)c2cc(OC)c3ccccc3c21,-7%
CC1(C)CC[C@]2(C(=O)n3ccnc3)CC[C@]3(C)[C@H](C(=O)C=C4[C@@]5(C)C=C(C#N)C(=O)C(C)(C)[C@@H]5CC[C@]43C)[C@@H]2C1,45µM*
O=c1oc2ccccc2c(N2CCCC2)c1CN1CCCC1,-1%
Cc1nc(N=Nc2cc(S(=O)(=O)O)ccc2S(=O)(=O)O)c(COP(=O)(O)O)c(C=O)c1O,1%
COc1cc(/C=C/c2nc(-c3ccccc3O)n[nH]2)cc(OC)c1OC,-5%
CCCCCN(C(=O)CCC(=O)OCC(=O)N(C)C1CCCCC1)c1c(N)n(CCCC)c(=O)[nH]c1=O,-1%
COc1cc(C(=O)NCCC(=O)NCc2ccc3c(c2)OCO3)cc(OC)c1OC,-15%
O=C(NCCc1ccc(Cl)cc1)c1ccc2c(c1)N(Cc1cccc(Cl)c1)C(=O)c1ccccc1S2(=O)=O,7%
CCc1ccc(CN(C(=O)COc2c(C)cccc2C)C2CCS(=O)(=O)C2)cc1 (stereo not drawn),-18%
O=C(COC(=O)C1CCN(c2ccc(C(F)(F)F)cn2)CC1)c1cccc(Br)c1,0%
CCOc1ccc(NC(=O)CC2C(=O)N(c3cccc(C)c3)C(=O)N2Cc2cccnc2)cc1 (stereo not drawn),20%
O=C1NC(=S)N(c2cccc(Cl)c2)C12CCCCC2,-23%
Cc1ccc(Nc2nc(NCc3ccco3)nc3nccnc23)cc1C,-5%
Cc1ccc(-n2nc3c(c2NC(=O)CC(C)C)CS(=O)(=O)C3)c(C)c1,-2%
CSc1ccc(CN(C)Cc2nc3cc(C(F)(F)F)ccc3c(=O)[nH]2)cc1,8%
N#CCCn1c(=O)c(CCc2ccccc2)nc2cnc(OCc3ccccc3)nc21,-1%
CC(=O)Nc1ccc(CN2CCN(CC=C(C)C)C(CCO)C2)cc1 (stereo not drawn),-8%
CCn1c(C(C)NS(=O)(=O)c2ccc(Cl)cc2)n[nH]c1=S (stereo not drawn),-3%
CNC(=O)CSc1nnc(-c2ccco2)n1-c1cccc(C)c1,-11%
CCc1ccc(C(=O)COC(=O)CNC(=O)CNC(=O)Cc2ccccc2)cc1,4%
CN(C(=O)c1cccc(NC(=O)c2cccs2)c1)c1ccccc1,2%
CCNC(=O)/C(C#N)=C/c1c(N2CC(C)OC(C)C2)nc2ccccn2c1=O (stereo not drawn),14%
COc1ccc(C(=O)N2CCN(Cc3ccccc3[N+](=O)[O-])CC2)cc1,0%
COc1cc(OC)cc(C(=O)Nc2cccc(N3CCCC3)c2)c1,-4%
COc1ccccc1OCc1ccc(C(=O)c2ccccc2)cc1,8%
Cc1ccc(-c2cc(C(=O)Oc3ccc(C#N)cc3)no2)cc1,-5%
Clc1cccc(-c2cc3nc4c(c(N5CCOCC5)n3n2)CCCC4)c1,-6%
Cc1ccc(NC(=S)NC(C)CCc2ccccc2)cc1C (stereo not drawn),-1%
COc1ccc(N2CCN(C(=O)COC(=O)COc3cccc(C(F)(F)F)c3)CC2)cc1,-16%
C=CCSc1nc(C)c(CC(=C)C)c(=O)[nH]1,3%
CCC(C(=O)Nc1cccc(S(=O)(=O)N(C)c2ccccc2)c1)c1ccccc1 (stereo not drawn),0%
COc1ccc(C(=O)NCC(=O)OCC(=O)c2ccc3c(c2)NC(=O)CO3)cc1OC,2%
O=C(NCc1cccnc1)c1sc2ccccc2c1Cl,7%
Cc1ccc(-c2noc(CCC(=O)N(C)c3ccccc3F)n2)cc1,3%
CCOC(=O)C1=NN(C(=O)COc2ccccc2)C(O)(c2ccc(Cl)cc2)C1 (stereo not drawn),-25%
CCCn1c(C)cc(C)c(C#N)c1=O,-5%
CCc1c(C)sc2nc(SCC(=O)Nc3cc(C)on3)n(CCOC)c(=O)c12,16%
Cc1c(Cl)cnc(NC(=O)CSc2nnc3ccccn23)c1Cl,-10%
O=[N+]([O-])c1cccc(Nc2c([N+](=O)[O-])ccc3nonc23)c1,-11%
Cc1sc(NC(=O)C2CCCCC2C(=O)O)c(C(N)=O)c1-c1ccc(C(C)(C)C)cc1 (stereo not drawn),?
C/C(CC(=O)Nc1cccnc1)=N\NC(=O)C(=O)Nc1cccc(C)c1,-20%
COc1cc(/C=C/c2nc(C#N)c(N3CCCCCC3)o2)cc(OC)c1OC,17%
Cc1nc(C)c(-c2ccc(SCC(=O)Nc3ccccc3)nn2)s1,22%
O=C(N/N=C/c1ccc(F)c(F)c1)c1cccc(S(=O)(=O)N2CCCCC2)c1,-10%
NC(=O)c1ccc(S(=O)(=O)N2CCSCC2)cc1,-4%
Cn1c(SCc2ccc(F)cc2)nnc1-c1ccccn1,9%

In the list so far, 2 contain a tert-butyl group.
molecule,VDR inhibitor
CC(C)(C)n1nnnc1C(c1ccccn1)N(Cc1ccccc1)Cc1ccc(Cl)cc1 (stereo not drawn),-21%
Cc1sc(NC(=O)C2CCCCC2C(=O)O)c(C(N)=O)c1-c1ccc(C(C)(C)C)cc1 (stereo not drawn),?

Next part:
molecule,VDR inhibitor
O=S(=O)(c1ccc(Cl)cc1)N1CCC(N2CCCCCC2)CC1,-11%
CCOC(=O)Cn1cc(/C=N/NC(=O)c2ccc(C#N)cc2F)c2ccccc21,2%
Cc1ccc(NC(=O)CCCn2c(=O)oc3ccccc32)c(O)c1,-24%
COc1ccccc1NS(=O)(=O)c1cc(NC(=O)c2sccc2C)ccc1N1CCOCC1,-12%
CCOC(=O)C1=C(C)N=c2s/c(=C3/C(=O)Nc4ccccc43)c(=O)n2C1c1ccc(C)cc1 (stereo not drawn),-29%
O=C(COC(=O)c1cc(=O)[nH]c2ccccc12)Nc1ccc(F)cc1,?
O=C(CSc1ccc2nc(-c3ccccc3)cn2n1)Nc1ccccc1,-3%
COc1ccc(N(CC(=O)O)S(=O)(=O)c2cccnc2)cc1,5%
N#Cc1ccccc1OCc1cccc(S(=O)(=O)N2CCOCC2)c1,11%
COC(=O)c1cn(C(=O)/C=C/c2ccc(OC)c(OC)c2)c2ccccc12,-16%
COc1ccc(-c2noc(C3CCCN(C(=O)CCc4ccccc4)C3)n2)cc1 (stereo not drawn),35%[activator]
CCOc1ccccc1OCCCOc1ccc(C)cc1Cl,-5%
CS(=O)(=O)Oc1ccc2c(c1)O/C(=C\C=C\c1ccccc1)C2=O,-18%
Cn1c(CCC(=O)OCC(=O)NCc2ccccc2Cl)nc(=O)c2ccccc21,-3%
CN(C)S(=O)(=O)c1ccc(S(=O)(=O)N(CC(=O)Nc2ccccc2)Cc2ccco2)cc1,-8%
CCC1=NN(C(=O)C(=O)NCCc2ccccc2)C(O)(C(F)(F)F)C1 (stereo not drawn),-11%
COc1ccc(C(=O)NC(=O)COC(=O)c2ccc(C)o2)cc1,2%
C=CCN1C2CCCC1CC(NC(=O)Nc1cc(C)cc(C)c1)C2 (stereo not drawn),-3%
Cc1nc2nc(Cc3ccccc3)[nH]n2c(=O)c1Cc1ccccc1,3%
CCOC(=O)c1c(C)oc2ncnc(NCCCN3CCN(c4cc(C)ccc4C)CC3)c12,4%
CC(=O)NC(CC(=O)NCCCn1ccc2ccccc21)c1ccccc1 (stereo not drawn),2%
